Source: PubChem BioAssay
Tg IFNy HTS: T. gondii growth inhibition under IFN-gamma | Toxoplasma gondii growth in IFN-gamma-treated host cells; stronger effect = lower value; reference of the scale not given here | activity change, negative = inhibition, %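 (about 20 µM by stock and volumes)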 | hit rate 3.8% among 69,000 | AID 1259416;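 active = below -70%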;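 note: host cells are HeLa cells infected with Toxoplasma gondii; parasite growth read as luciferase light; one replicate is shown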
* hit, by the source's call; & = joins results of further samples.

SMILES	Tg IFNy HTS
CCN(CC)CCNC(=O)c1cncc(N(C)S(=O)(=O)c2ccc(C)cc2)c1	1
Cc1nc(CN2Cc3ccnn3CC(COCCN(C)C)C2)cs1 (stereo unspecified)	2
Cc1nnc(SCC(=O)Nc2c(C)cnn2Cc2ccccc2Cl)s1	-4
Cc1n[nH]c(C)c1CCC(=O)N1C[C@@H]2[C@@H]3CC[C@@H](C3)[C@@H]2C1	6
Cc1noc(CCC(=O)Nc2ccc(C)c(S(=O)(=O)N(C)C)c2)n1	29
C[C@@H]1CCCCO[C@H](CN(C)Cc2ccc(C(F)(F)F)cc2)[C@H](C)CN([C@H](C)CO)C(=O)c2cc(NC(=O)Nc3cccc4ccccc34)ccc2O1	423
COC(=O)C[C@](O)(CCCC(C)(C)O)C(=O)O[C@@H]1C(OC)=C[C@]23CCCN2CCc2cc4c(cc2[C@H]13)OCO4	-82*
COc1ccc(-c2nc(NCc3ccccc3)c3ccccc3n2)cc1	-44
COc1ccc2c3c(n(C)c2c1)[C@H](CO)N(CC1CC1)CC31CCN(S(=O)(=O)c2cccs2)CC1	-59
CN(C)CCn1c2c(ccc1=O)CCN(C(=O)c1cscn1)CC2	0
N#C[C@@H]1[C@@H](c2ccccc2-c2ccccc2F)[C@@H](CO)N1C(=O)c1ccccn1	-44
COc1ccc(-c2nc(N3CCN(c4cccc(C(F)(F)F)c4)CC3)c3ccccc3n2)cc1	6
CC(C)(C)c1ccc(CSC2=Nc3ccccc3C3=NC(CC(=O)NCc4cccs4)C(=O)N23)cc1 (stereo unspecified)	-25
CCOC(=O)c1ccccc1NC(=O)N1CCC2(CC1)Nc1ccccc1-n1cccc12	142
CCOCC1CN(C(=O)c2c(C)noc2C)Cc2ncn(CC3CC3)c21 (stereo unspecified)	2
COc1ccc2c3c(n(C)c2c1)[C@@H](CO)N(C(=O)CN1CCOCC1)CC31CCN(C(=O)Nc2cccc(F)c2)CC1	33
COc1cccc(Nc2nc(-c3nnc(-c4ccc(C)cc4)o3)nc3ccccc23)c1	95
C=CCOc1cc(OCc2ccccc2)c(C(C)=O)c(OCc2ccccc2)c1C(C)=O	-37
O=C(c1cn(-c2ccccc2)nn1)N1CCCC(c2nc3ccccc3[nH]2)C1 (stereo unspecified)	-19
C[C@H]1CN([C@@H](C)CO)C(=O)c2ccccc2-c2ccccc2CO[C@@H]1CN(C)C(=O)[C@H]1CCCN1C	57
CC(C)C1CN(C(=O)CCc2ccc(=O)[nH]n2)CCCN1CC1CC1 (stereo unspecified)	42
COc1ccc(S(=O)(=O)N2Cc3nc(CN(C)C)oc3C2)cc1	12
Cc1ccc(C2(c3noc(Cn4cc(CCO)cn4)n3)CCCC2)cc1	-42
O=C(c1cccc(=O)[nH]1)N(Cc1ccsc1)CC1CCCO1 (stereo unspecified)	-2
O=c1c(N2CCCCC2)c(N2CCCCC2)c1=O	-14
C[C@@H](NC(=O)[C@@H]1[C@@H](CO)[C@@H]2Cn3c(ccc(-c4ccccc4)c3=O)[C@@H]2N1C)c1ccccc1	-29
COc1ccc2c(c1)NC1(CCN(C(=O)NCCC(C)C)CC1)c1cccn1-2	143
CS(=O)(=O)N1[C@H](CO)[C@H](c2ccc(-c3ccccc3F)cc2)[C@@H]1C#N	10
Cc1cc2cc(NC(=O)CNC(=O)c3nc4ncccn4n3)cc(Cl)c2o1	5
CN(CCOc1ccc(F)cc1)C(=O)c1cc(-c2ccc(Cl)cc2)on1	-4
CCc1nc(Cn2ccnc2-c2cnc(NC(C)C)nc2)no1	5
CCCC(=O)Nc1ccc2c(c1)OC[C@H](C)N(S(=O)(=O)c1cn(C)cn1)C[C@@H](C)[C@H](OC)CN(C)C2=O	9
O=C1c2ccccc2C(=O)N1c1ncn[nH]1	5
COc1ccc(OCC(=O)N2CCCC3(C2)Nc2cccnc2NC3=NC2CCCC2)cc1 (stereo unspecified)	35
O=C(CN1C(=O)CCc2cc(S(=O)(=O)N3CCCCC3)ccc21)N1CCOCC1	6
COc1cc2c3c(c1)C1(C(=O)N3C(C)(C)C=C2C)C(C#N)=C(N)Oc2cc(C)oc(=O)c21 (stereo unspecified)	-44
COc1ccc(/C=N\NC(=O)CCc2c(C)n[nH]c2C)c(OC)c1OC	30
COc1cccc(-c2nc(C)c(-c3ccc(SCc4ccc(C)cc4)nn3)s2)c1	1
Cc1cc(N2CCCN(Cc3c(F)cccc3Cl)CC2)ccn1	-50
CO[C@@H]1CN(C)C(=O)c2ccc(NC(=O)c3ccno3)cc2OC[C@H](C)N(S(C)(=O)=O)C[C@H]1C	41
O=C1CCc2cc(S(=O)(=O)Nc3ccc(Oc4ccccc4)cc3)cc3c2N1CCC3	-40
Cc1nc(N)nc(C)c1CC(=O)N1CC(c2ccncc2)C1	8
O=C(Nc1ccc(C(F)(F)F)cc1)N1[C@@H]2CNC[C@H]1C2c1ccc(-c2ccccc2F)cc1 (stereo partly specified)	34&39
CC(=O)c1ccc(OS(=O)(=O)CS(=O)(=O)Oc2ccc(C(C)=O)cc2)cc1	35
CCOCC1CN(Cc2ccc3c(c2)OCO3)Cc2ncn(C)c21 (stereo unspecified)	0
COc1ccccc1NC(=O)C1C2C=CC(C2)C1C(=O)O (stereo unspecified)	11
CCC1(N2CCN(C(=O)CCc3c[nH]c4ccccc34)CC2)CCN(S(C)(=O)=O)C1 (stereo unspecified)	12
Cc1c(Cl)cccc1S(=O)(=O)N1[C@H]2CCNC[C@@H]1CC2	-1
CCOC(=O)C(NCc1ccccn1)(NC(=O)c1cccnc1)C(F)(F)F (stereo unspecified)	-20
CCCCOc1ccccc1-c1cc2c(=O)n(Cc3nc(-c4ccc(Cl)cc4)oc3C)ccn2n1	80
(listing goes on)
SMILES	Tg IFNy HTS
CN(Cc1nc2ccc(Cl)cc2[nH]1)C(=O)c1cn(-c2ccccc2)nn1	-29
O=C(NCC[C@@H]1CC[C@@H](NC(=O)c2ccccc2F)[C@H](CO)O1)c1cnccn1	-3
CC1COC2(CCN(C(=O)c3ccn(C)n3)CC2)C1 (stereo unspecified)	23
CO[C@@H]1CC[C@@H]2CCOc3c(C#N)cccc3C(=O)N(C)C[C@H](c3ccccc3)CC(=O)N(C)C[C@@H]1O2	17
O=C(c1ccc2c(c1)OCO2)N1C[C@H]2[C@@H](c3ccccc31)[C@@H](CO)N2Cc1cccnc1	4
COc1cccc(N(Cc2nc(-c3ccccc3)oc2C)S(=O)(=O)c2ccccc2C)c1	-55
C/C=C/c1ccc([C@@H]2[C@@H](C#N)N(C(=O)NC3CCCCC3)[C@@H]2CO)cc1	25
Cc1ccc(-c2ncc(CN3CCC(O)(c4ccc(C)cc4)C3)cn2)cc1 (stereo unspecified)	16
CC(C)(C)NC(=O)[C@@H]1Cc2ccccc2CN1	-17
CC(C)n1cnc(-c2cc(C(=O)C3CC3)c3ccccn23)c1	66
COc1cc2c(cc1NCc1ccc3c(c1)OCO3)oc1ccccc12	15
C=CCOC[C@H]1CCC2C(CCN2C(=O)c2ccc3[nH]ccc3c2)O1 (stereo partly specified)	-8
CCc1nn(-c2ccccc2)c(NC(=O)c2ccc(C)[nH]c2=O)c1C	-3
Cc1ccc(NC(=O)Cn2ncc3c(N4CCN(c5ccccn5)CC4)ncnc32)c(C)c1	-56
CN(C)CC(=O)N1CCCn2nnc(COc3cccnc3)c2C1	-52
CN(Cc1cccnc1)C1CCN(C(=O)c2cnccn2)C(C(=O)O)C1 (stereo unspecified)	8
CCn1ccc2cc(S(=O)(=O)N3CCC(C(=O)N4CCCC4)CC3)ccc21	-10
CC1CCN(C(=O)c2csc(C(=O)NC3CC3)n2)CC1	-17
CCOC(=O)N1CCC2(CC1)OC(=O)C(C)=C2C(=O)NCc1ccc(C)cc1	39
Cc1noc(C)c1CN1Cc2ncn(CC(C)C)c2C(C(=O)O)C1 (stereo unspecified)	-2
CCOCCN1CC[C@@H]2Oc3ccccc3S(=O)(=O)N(CC3CC3)[C@@H]2CC1	-5
O=C(NCCc1csc(-c2ccc(Cl)cc2)n1)C(=O)Nc1ccc2c(c1)OCCO2	-40
Cc1ccc(NC(=O)n2nccc2-c2ccc(-c3cccs3)s2)cc1	40
O=C(NCC[C@H]1CC[C@@H](NC(=O)C2CCOCC2)[C@H](CO)O1)c1cc(Cl)cc(Cl)c1	-5
CCn1cc(-c2ccc(S(C)(=O)=O)cc2)c(C)n1	4
COc1ccccc1CCC(=O)N1CCN(c2ncccn2)CC1C(=O)O (stereo unspecified)	78
CCn1c(C2CCN(C(=O)NCc3ccco3)CC2)nn(C)c1=O	50
Cc1ccc(OS(=O)(=O)c2ccc(-c3csc(C)n3)s2)c(C)c1	-2
Cc1ccc2c(c1)cc(C(=O)N1CC(C(=O)N3CCOCC3)C1)n2C	13
Cc1cc(NC(=O)CN2CCN(CC3CC3)C(CCO)C2)ccc1Cl (stereo unspecified)	-26
Cc1cc(-c2cccc(CN3CCOCC3)c2)nc(-c2ccccc2O)n1	-22
CCc1cnc(N2[C@H](C#N)[C@H](c3ccc(C#Cc4ccccc4F)cc3)[C@@H]2CO)s1	-57
CN(C)S(=O)(=O)N1CCC2OCCCC2(COc2cccnc2)C1 (stereo unspecified)	-6
CC(C)[C@H]1CC=CC[C@H](C)Oc2ccccc2C(=O)N(C)[C@H](C(C)C)C(=O)N1 (mixture of isomers)	-56
CCN(CCOc1cccc(C)c1)C(=O)c1ccc2nc(C)[nH]c2c1	4
CC(Nc1nc(CCN)nc2ccccc12)c1ccccc1-n1cccn1 (stereo unspecified)	20
COc1ccccc1N1CC(NC(=O)c2ccc(F)c(-n3cccn3)c2)CC1=O (stereo unspecified)	10
CCS(=O)(=O)NCC[C@@H]1CC[C@@H](NS(=O)(=O)c2ccccc2C)[C@@H](CO)O1	0
CO[C@H]1CN(C)C(=O)c2ccc(NC(=O)C3CCC3)cc2OC[C@H](C)N(Cc2ccccn2)C[C@@H]1C	93&-46
COc1ccccc1NC(=O)CCCCCN1C(=O)c2cccc3cccc(c23)C1=O	20

Ordered by molecular weight (smallest number first): some entries from above.
SMILES	Tg IFNy HTS
CCn1cc(-c2ccc(S(C)(=O)=O)cc2)c(C)n1	4
CCn1c(C2CCN(C(=O)NCc3ccco3)CC2)nn(C)c1=O	50
CCN(CCOc1cccc(C)c1)C(=O)c1ccc2nc(C)[nH]c2c1	4
Cc1ccc2c(c1)cc(C(=O)N1CC(C(=O)N3CCOCC3)C1)n2C	13
CN(C)S(=O)(=O)N1CCC2OCCCC2(COc2cccnc2)C1 (stereo unspecified)	-6
Cc1cc(-c2cccc(CN3CCOCC3)c2)nc(-c2ccccc2O)n1	-22
Cc1cc(NC(=O)CN2CCN(CC3CC3)C(CCO)C2)ccc1Cl (stereo unspecified)	-26
COc1ccccc1CCC(=O)N1CCN(c2ncccn2)CC1C(=O)O (stereo unspecified)	78
CC(C)[C@H]1CC=CC[C@H](C)Oc2ccccc2C(=O)N(C)[C@H](C(C)C)C(=O)N1 (mixture of isomers)	-56
COc1ccccc1N1CC(NC(=O)c2ccc(F)c(-n3cccn3)c2)CC1=O (stereo unspecified)	10
COc1ccccc1NC(=O)CCCCCN1C(=O)c2cccc3cccc(c23)C1=O	20
CCS(=O)(=O)NCC[C@@H]1CC[C@@H](NS(=O)(=O)c2ccccc2C)[C@@H](CO)O1	0
O=C(NCC[C@H]1CC[C@@H](NC(=O)C2CCOCC2)[C@H](CO)O1)c1cc(Cl)cc(Cl)c1	-5
CO[C@H]1CN(C)C(=O)c2ccc(NC(=O)C3CCC3)cc2OC[C@H](C)N(Cc2ccccn2)C[C@@H]1C	93&-46

Further results:
SMILES	Tg IFNy HTS
CO[C@H](CN(C)C(=O)c1cc(Cl)cc(Cl)c1)[C@H](C)CN(C(=O)Nc1ccc(F)cc1)[C@H](C)CO	27
CC(NC(=O)c1cccc(CN2CCCC2=O)c1)c1ccc(N2CCOCC2)cc1 (stereo unspecified)	-6
O=C(Nc1cccnc1Oc1ncnc2cc(Cl)ccc12)c1ccc(F)cc1	49
Cc1nc(-c2cccc(NC(=O)CN3CCCN(c4ccccn4)CC3)c2)cs1	6
Cn1c(=O)[nH]c(=O)c2c1nc1oc(-c3ccc(Br)cc3)cn12	-7
COc1nc(N)nc(-c2csc(C)n2)n1	39
O=c1[nH][nH]c(=S)n1-c1cccc(C(F)(F)F)c1	-23
O=C(C[C@@H]1CC[C@@H](NC(=O)c2ccc3c(c2)OCO3)[C@H](CO)O1)NCc1ccc(Oc2ccccc2)cc1	39
CC(C)N1CC2(CCN(Cc3nccn3C)CC2)c2ccccc21	-4
CC(=O)Oc1ccc(-c2ccc(OC(C)=O)cc2)cc1	23
CN(C)C(=O)COCC12CCCOC1CCN(C(=O)N(C)C)C2 (stereo unspecified)	8
COc1ccc(CN2CCN(C3CCCCC3)C(=O)C2)cc1C(=O)O	-4
CC(C)CNC(=O)C1Cn2ccnc2C2(CCN(C(=O)C3CCOCC3)CC2)O1 (stereo unspecified)	13
COc1cccc(CC(=O)Nc2ccc(-c3nc(Cn4nc(C)cc4C)c(C)o3)cc2)c1	-85*
CCCCc1n[nH]c(=O)n1Cc1cccs1	1
O=C(N[C@H]1CC[C@@H](CC(=O)N2CCOCC2)O[C@H]1CO)c1cccc(F)c1	-25
CCOC(=O)c1c(-c2ccccc2)csc1NC(C)=O	72
COc1ccc(-c2csc(N3N=C(c4ccccc4)CC3=O)n2)cc1	21
COc1ccc(NC(=O)Nc2cccc3c2O[C@@H](CN(C)Cc2ccc(C(=O)O)cc2)[C@H](C)CN([C@H](C)CO)C3=O)cc1	36
N#CC1(C#N)C(c2ccccc2Cl)C(C(=O)c2ccccc2)N2C=Cc3ccccc3C21 (stereo unspecified)	69
C=CCC(=O)N(CC=C)Cc1ccc(SC)cc1	11
Cc1ccc2c(c1)C(=O)c1c(C(=O)O)cccc1-2	9
CN(Cc1ccccn1)C(=O)c1ccc2ccc(N(C)c3ccccc3)n2c1	-6
O=C(Nc1ccccc1C(=O)NCCN1CCOCC1)c1csnn1	-42
COc1cccc(-n2c(=O)c(C(=O)Nc3cc(C)ccc3C)c(O)c3cccnc32)c1	-2
COc1ccc(C(=O)NCc2cnn(Cc3ccccc3)c2)cc1O	45
O=S(=O)(c1ccccc1)N1CCN(c2ncnc3c2CCNC3)CC1	-14

Only part of the results is shown (hit frequency here may not be typical).
